# CapD inh – CapD enzyme inhibition; purified CapD enzyme, fluorescence intensity read-out; stronger effect = lower value; some hits fall short of the stated cut; z-score (test concentration not listed); actives 0.23% (n = 140,000);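 active = z-score under -4 in either of two replicates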;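 also: stock transfer was 100 nL into about 40 µL; score is relative to mean and spread of the plate; one replicate is shown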
# AID504770 – growth inhibitors of E. coli YBA685 in a screen for V. cholerae RctB (chromosome II replication) inhibitors; E. coli YBA685 rctB-dependent plasmid, OD600 growth, 3 h; stronger effect = lower value; z-score (no concentration beside the values); actives 0.27% (n = 130,000); AID 504770;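 active = z-score under -2 on both plates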;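 also: wells of about 30 µL received 100 nL stock; score is relative to mean and SD of the test wells; the first replicate is given; strong numbers were not always called active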
# * = called active by the depositor; nt = not tested or not shown; & = joins results of further samples.
SMILES,CapD inh,AID504770
CN(C)C(=O)c1ccccc1NC(=O)c1ccco1,0.3,0.85
O=C(O)c1ccccc1C(=O)n1ccnc1-c1ccccc1,nt,0.8
CSC1=C(C#N)C(=O)NC(c2cccc3ccccc23)S1 (configuration not stated),-1.32,-0.15
Cc1ccc(NC(=O)CCN2C(=O)c3ccccc3S2(=O)=O)cc1C,-0.095,0.3
O=C(Nn1cnc2ccccc2c1=O)c1cccc(Cl)c1,-0.01,0.35
O=C(Nc1nc2ccccc2n1CCOc1ccccc1)c1ccc([N+](=O)[O-])cc1,-0.13,nt
O=C1c2ccccc2-c2cc(=O)[nH]c3cccc1c23,nt,-0.25
O=C(O)c1coc(COCC(F)(F)F)c1,-1.75,-1.05
CN(C)C(=O)COC(=O)c1ccc2c(c1)OCO2,nt,0.9
O=C(/C=C/Nc1cccc(C(F)(F)F)c1)c1ccco1,8.18,-1

# Compounds shown so far that have sulfur:
SMILES,CapD inh,AID504770
CSC1=C(C#N)C(=O)NC(c2cccc3ccccc23)S1 (configuration not stated),-1.32,-0.15
Cc1ccc(NC(=O)CCN2C(=O)c3ccccc3S2(=O)=O)cc1C,-0.095,0.3

# Later entries
SMILES,CapD inh,AID504770
CC(NCCOc1ccccc1F)C(=O)Nc1ccc(S(N)(=O)=O)cc1 (configuration not stated),nt,-0.5
CN1CCN(CC(=O)N2CCc3ccccc32)CC1,-0.415,-1.45
CCCCOc1ccc(C2C(N3C(=O)c4ccccc4C3=O)C(=O)N2c2ccc(OC)cc2OC)cc1 (configuration not stated),-0.175,nt
Cc1sc2ncnc(OCC(N)=O)c2c1C,nt,-0.4
O=C(O)c1ccccc1-c1ccccc1C(=O)Nc1ccc(F)cc1,-0.425,-0.4
O=C(NCCN1CCCc2ccccc21)Nc1ccc(Br)cc1F,0.39,0.1
CC(=O)Oc1cc(/C=C2\Oc3ccc4c(C)cc(=O)oc4c3C2=O)ccc1[N+](=O)[O-],-0.08,nt
C=CCN(CC=C)S(=O)(=O)Cc1ccccc1,0.82,0.6
CCc1ccc(NC(=O)C2CCN(S(=O)(=O)c3c(C)[nH]c(=O)[nH]c3=O)CC2)cc1,0.2,-0.05
COc1ccccc1N1CCN(c2nc(Nc3ccc(C)cc3)c3cnn(C)c3n2)CC1,-2.23,-0.6
C=CCn1c(C)c(/C=C/C2=CCN(C)CC2)c2ccccc21,nt,-0.5
C=CCn1c(NC(=O)/C=C/c2ccccc2)c(C#N)c2nc3ccccc3nc21,nt,-0.6
CC(C)(C)c1nc2ccccc2c(=O)n1-c1ccc(F)cc1F,0.77,0.15
CCCCNC(N)=S,nt,0.55
CCSCCOC(=O)C1=C(C)NC2=C(C(=O)CC(c3cccs3)C2)C1c1ccc(OC)c(OC)c1 (configuration not stated),22.8,nt
CC(COC(=O)N1CCN(c2ncnc3sccc23)CC1)c1ccccc1 (configuration not stated),-0.405,nt
OC1CCCCC1N1CCNCC1 (configuration not stated),nt,-0.25
COc1ccc(-c2nn(-c3ccccc3)cc2C2SCC(=O)N2Cc2ccccc2)cc1[N+](=O)[O-] (configuration not stated),-0.285,nt
CC1=C(C(=O)Nc2ccccc2)C(c2ccc(C)cc2)N=C(Nc2nc3ccccc3o2)N1 (configuration not stated),77,0.25
Cc1[nH]c2ccccc2c1C(O)c1cccnc1 (configuration not stated),0.29,-0.2
O=C1CCC(=O)N1CNc1cccc(Cl)c1,3.22,-0.7
COc1ccc(-c2nnsc2N2C(=O)c3ccccc3C2=O)cc1,-0.035,1.75
CN(Cc1ccccc1)C(=O)COc1cccc2ccccc12,-0.055,0
COC(=O)CSc1nccc(=O)[nH]1,nt,-0.8
Cc1nnc(SCc2ccc(F)cc2Cl)c2cc3occc3n12,0.11,-0.65
COC(=O)c1ccccc1NC(=O)c1ccc2c(c1)OCCCO2,0.785,0.15
CN(C)S(=O)(=O)c1ccc(C(=O)Nc2nccs2)cc1,-0.465,0
O=C(CSc1nnnn1C1CCCC1)c1ccc(NC(=O)c2ccccc2)cc1,nt,0.75
Cn1c(COc2ccccc2)n[nH]c1=S,-0.1,-0.5&0.25
COc1ccc(NC(=O)C2CCN(c3nn4cc(-c5ccc(OC)cc5)nc4s3)CC2)cc1,0.15,1
O=C(Nc1nnc(C2CCCCC2)s1)c1ccc2c(c1)OCO2,nt,-1.25
CCCCNc1nc(SC(CC)C(=O)NCc2ccco2)nc2ccccc12 (configuration not stated),0.62,nt
CN(C)c1ccc(C(=O)NNC(=O)OCc2cccc(OCc3ccccc3)c2)cc1,0.83,nt
CCC(=O)NCc1nc2ccccc2n1C(C)c1ccccc1 (configuration not stated),0.025,-0.85
CCc1cccc(Nc2c3c(nc4ncnn24)CCC3)c1,nt,-0.7
Cc1oc(-c2ccccc2F)nc1CS(=O)(=O)CC(=O)N1CCCCCC1,-0.59,0.6
COc1cccc2cc(-c3csc(NC(=O)CCC(=O)NCc4ccco4)n3)c(=O)oc12,2.64,nt
CN1C(=O)/C(=C2/Sc3ccccc3N2C)SC1=Nc1ccccc1,-0.26,nt
CC(C)CC(NC(=O)CC12CC3CC(CC(C3)C1)C2)C(=O)N1CCOCC1 (configuration not stated),nt,0.75
COc1cc(C(=O)Oc2cc(C)cc(C)c2)cc(OC)c1OC,0.49,-1.1
O=C(NCc1ccco1)c1ccc2c(=O)n(-c3cc(C(F)(F)F)ccc3Cl)c(=S)[nH]c2c1,-0.365,nt
CC(NCCc1ccc(O)cc1)C(O)c1ccc(O)cc1 (configuration not stated),nt,-0.95
CCOC(=O)c1cc(C#N)c(NCc2ccccc2OC)nc1-c1ccccc1,-1.06,nt
CC(C)c1ccc(C2C3=C(CC(c4cccs4)CC3=O)Nc3ncnn32)cc1 (configuration not stated),nt,-0.8
CSc1nnc(-c2ccccc2)c(=O)[nH]1,-0.415,nt
Cc1ccc2c(c1)-c1onc(C(=O)N(C)c3ccccc3)c1CO2,0.81,0.85
Cc1cc(C)cc(OC(F)(F)C(=O)Nc2ccc(OC(F)(F)F)cc2)c1,0.465,nt
Cn1c(=O)cc(Sc2ccccc2)n(CC(=O)c2ccc(Cl)cc2)c1=O,-0.225,nt
Cc1cc(C(=O)O)c(C)n1C(C)C,nt,-0.65
NC(=O)c1c(NC(=O)COC(=O)C2CC(=O)N(Cc3ccco3)C2)sc2c1CCC2 (configuration not stated),nt,0.5

# Shown with values under each structure: four of the compounds above.
# Below each compound: CapD inh, AID504770
- CSc1nnc(-c2ccccc2)c(=O)[nH]1
→ -0.415, nt
- CCOC(=O)c1cc(C#N)c(NCc2ccccc2OC)nc1-c1ccccc1
→ -1.06, nt
- Cc1cc(C(=O)O)c(C)n1C(C)C
→ nt, -0.65
- CC(C)c1ccc(C2C3=C(CC(c4cccs4)CC3=O)Nc3ncnn32)cc1 (configuration not stated)
→ nt, -0.8

# (listing goes on)
SMILES,CapD inh,AID504770
O=C(Nc1ccccc1)Nc1sccc1-c1nc2ccccc2s1,0.14,2.95
CCOc1cccc(NC(=O)c2ccc(S(=O)(=O)N3CCCCCC3)cc2)c1,-0.43,-0.5
COc1cc(NC(=O)C(C)C)ccc1NC(=O)C(C)C,-0.175,-0.65
C#CCSc1nnnn1-c1cccc(Cl)c1,0.3,-1.15
NCCOC(=O)Nc1nc2ccccc2[nH]1,-0.545,-0.9
CC1CN(Cc2cc(Cl)c3cccnc3c2O)CC(C)O1 (configuration not stated),nt,0.15
CC(C)(C)c1ccc(C(=O)N2CCC(C(=O)NC3CC3)CC2)cc1,nt,2.05
O=C(Oc1cc2ccccc2cc1C(=O)O)c1cccc(Cl)c1,-0.45,1.65
O=C(NCc1ccccc1)c1cccn(Cc2ccc(C(F)(F)F)cc2)c1=O,47.6,nt
CC(C)N(C)NC(=S)Nc1ccccc1,nt,-0.5
COC(=O)c1sc(C(F)(F)F)c(-c2ccccc2)c1N=CN,5.9,nt
Cc1cn(C(=O)c2snnc2C)nc1-c1cccs1,-0.53,-0.8
COc1ccc(N2CCN(C(=O)c3ccc(NC(=O)C4=C(C)OCCS4)cc3)CC2)cc1,0.4,-0.35
COC(=O)CCCCCCCC(=O)Nc1ccc(OC)c(OC)c1,-0.375,nt
Cc1sc2c(c1C)CN(C1CCCC1)CN2C(=O)c1ccccc1,nt,0.1
C=CCn1c(Cc2nnc(SCC(=O)c3ccccc3)n2CC=C)nnc1SCC(=O)c1ccccc1,nt,-0.25
O=C(Cn1cnc2ccccc21)N/N=C/c1sc(N2CCCCC2)nc1-c1cccs1,nt,0
O=C(CSc1nc2[nH]ncc2c(=O)n1-c1ccc(Cl)c(Cl)c1)NCc1ccccc1Cl,-0.37,nt
COc1cc(C(=S)N(C)C)ccc1O,-0.575,-1.2
CCN(CC)c1ccc2c(N3CCCCC3)cc(=O)oc2c1,44.5,0.8

# Compound profiles (already shown).
# Cc1cn(C(=O)c2snnc2C)nc1-c1cccs1 is listed as CapD inh: -0.53; AID504770: -0.8
# C=CCn1c(Cc2nnc(SCC(=O)c3ccccc3)n2CC=C)nnc1SCC(=O)c1ccccc1 is listed as CapD inh: nt; AID504770: -0.25
# COC(=O)c1sc(C(F)(F)F)c(-c2ccccc2)c1N=CN is listed as CapD inh: 5.9; AID504770: nt

# Further compounds follow.
SMILES,CapD inh,AID504770
O=C1CC(c2ccccc2)n2nc(NC(=O)c3ccco3)nc2N1 (configuration not stated),0.5,-0.85
CC(C)c1ccc(NC(=S)N=C(N)N)cc1,0.74,0.45
Cc1ccccc1C1Nc2ccc3ncccc3c2C2=C1C(=O)CCC2 (configuration not stated),3.32,nt
CC1CCCCN1C(=O)Nc1noc2c1COc1ccccc1-2 (configuration not stated),0.245,-0.45
COC(=O)c1c(O)c2ccccc2oc1=O,-0.45,0.8
COc1ccccc1C(=O)N1CCN(C/C=C/c2ccccc2)CC1,-0.23,nt
Cc1cc2nc(SCC(=O)C(C)(C)C)[nH]c2cc1C,0.195,1.25
O=C(Cn1nc(Cc2cccnc2)c2ccccc2c1=O)NCCCN1CCCC1=O,-0.495,1.5
O=C(c1ccc2c(c1)OCO2)N1CCc2ccccc2C1,nt,-0.35
O=C(c1cccs1)N1CCN(C(=O)C2CCCCC2)CC1,-0.595,2.6
O=C(CCn1[nH]c(=O)ccc1=O)Nc1nc2ccccc2[nH]1,nt,-0.4
Cc1ccc2nc(NC(=O)C(Cc3ccccc3)n3cccc3)sc2c1 (configuration not stated),-0.33,-0.5
COc1ccc2c(C)cc(N(C)C3CCN(C)CC3)nc2c1,nt,-0.55
CCOC(=O)C1=C(C)NC2=C(C(=O)c3ccccc32)C1c1cc(Br)c(OC)c(OCC)c1 (configuration not stated),-0.555,nt
NC(=O)C1CCN(C(=O)CN2CCN(c3ccccn3)CC2)CC1,nt,0.15
Cc1cc(N2CCC3(CC2)OCCO3)n2ncnc2n1,nt,-0.3
COc1ccc2[nH]c(C(=O)N3CCC(Cc4ccccc4)CC3)cc2c1,1.88,-0.85
Cc1nc(N2CCN(c3ccccn3)CC2)c2c(C)c(C(=O)N3CCN(Cc4ccc5c(c4)OCO5)CC3)sc2n1,-0.025,nt
COc1ccc(OC)c(N=C2SCCN2C(=O)CC2CCCC2)c1,nt,1.65
CC1CC(C)CN(S(=O)(=O)c2ccc(Cl)cc2)C1 (configuration not stated),-0.34,0
O=C(c1cc(C2CC2)on1)N1CCN(c2ccccc2)CC1,-1,-1.15
CC(C)NC(=O)NCc1ccc(C(=O)OCc2nnc(-c3ccccc3)o2)cc1,nt,-0.25
COc1ccccc1OCC(=O)Nc1cccc(Cl)c1Cl,0.08,-0.65
CC1(C)C2CCC(COC(=O)N3CCC(C(O)(c4ccccc4)c4ccccc4)CC3)C1C2 (configuration not stated),-0.21,nt
Cn1cccc1C(=O)NNC(=O)OCCCc1ccccc1,-0.885,nt
Cc1cc(N=Nc2ccc(C(F)(F)F)cc2)c2c(C)ccc(C(C)C)cc1-2,-0.375,nt
O=C(NC1CCCCC1)c1ccc(Sc2ccccc2)c([N+](=O)[O-])c1,0.335,nt
O=C(c1nn2c(C(F)(F)F)cc(-c3ccco3)nc2c1Cl)N1CCN(Cc2ccccc2)CC1,0.17,nt
S=c1nc(-c2ccco2)[nH][nH]1,nt,-0.45
COc1ccc(OC)c(N2CC(O)(c3ccc([N+](=O)[O-])cc3)[N+]3=C2SCCC3)c1 (configuration not stated),0.255,nt
COc1cccc2c1OC1(C)CC2N(C(=O)c2ccc(Br)o2)C(=S)N1c1ccc(C)cc1 (configuration not stated),-0.52,0
O=C(N/C=N/OCc1ccc([N+](=O)[O-])cc1)NOCc1ccc([N+](=O)[O-])cc1,0.26,nt
O=C(O)CN1c2cccc3cccc(c23)S1(=O)=O,nt,0
Cc1nn(-c2cc(N3CCCCC3)ccc2N)c(=O)c2ccccc12,32.4,0.85
CN1CCN(/N=c2\cc(-c3ccccc3)oc3ccccc23)CC1,nt,-1.3
CC(C)c1ccc(C2Nc3ccc4ncccc4c3C3=C2C(=O)CCC3)cc1 (configuration not stated),19.1,nt
CCN(CC)c1ccc(C(=O)N/N=C/c2ccc(C(F)(F)F)cc2F)cc1,3.18,nt
O=C(O)/C=C/C(=O)Nc1ccc(N2CCOCC2)nc1N1CCOCC1,-1.62,0.05
Cn1c(-c2ccccc2)c(C(=O)CSc2nnc3n2CCCCC3)c2ccccc21,nt,-0.75
Cc1ccc(/C=C/C(=O)OCc2cc(=O)n3cc(Br)ccc3n2)o1,nt,0.2
O=C(Cn1cc2c(n1)CCCC2)NC1CCCC1,-0.145,-0.15
NC(=O)CS(=O)(=O)C(c1ccccc1)c1ccccc1,-0.525,1.95
Oc1ccccc1/C=N/c1ncn[nH]1,-0.665&0.93,-1.75&1.3

# Some of the entries so far, with two lines to a compound:
# Every second line gives: CapD inh	AID504770
Oc1ccccc1/C=N/c1ncn[nH]1
    -0.665&0.93	-1.75&1.3
O=C(Cn1cc2c(n1)CCCC2)NC1CCCC1
    -0.145	-0.15

# Screening data as filed in PubChem BioAssay.
